HCMV UL50-53 inh – inhibitors of HCMV UL50-UL53 interaction, biochemical, HTRF. HCMV UL50-UL53 nuclear egress complex (human cytomegalovirus). normalized percent inhibition. inhibition, % (test concentration not listed). hit rate 0.15% among 190,000;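 active = both replicates at 50% or more, plus weaker picks with an unusually low signal ratio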;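 note: stock transfer was 100 nL into about 20 µL; 0% = negative control wells and 100% = wells with untagged competitor protein; inactives centre near -12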
GIV-Gai inh – inhibitors of GIV peptide binding to Galpha-i3, primary screen, biochemical, fluorescence polarization, FITC-GIV GBA peptide, rat Galphai3 | 90 min; active compounds read low; scaled: aluminum fluoride 0%, vehicle 100% | percent of control (FP), % (test concentration not listed) | Guanine nucleotide-binding protein G(i) subunit alpha-3 (Rattus norvegicus), P08753 | hit rate 0.42% among 210,000;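 active = replicate mean at 85% of control or lower, very high polarization wells dropped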;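 note: lower values mean more displacement of the GIV peptide from Galpha-i3; wells of about 15 µL received 100 nL stock; the first replicate is given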
Target sequence (P08753 whole entry, looked up): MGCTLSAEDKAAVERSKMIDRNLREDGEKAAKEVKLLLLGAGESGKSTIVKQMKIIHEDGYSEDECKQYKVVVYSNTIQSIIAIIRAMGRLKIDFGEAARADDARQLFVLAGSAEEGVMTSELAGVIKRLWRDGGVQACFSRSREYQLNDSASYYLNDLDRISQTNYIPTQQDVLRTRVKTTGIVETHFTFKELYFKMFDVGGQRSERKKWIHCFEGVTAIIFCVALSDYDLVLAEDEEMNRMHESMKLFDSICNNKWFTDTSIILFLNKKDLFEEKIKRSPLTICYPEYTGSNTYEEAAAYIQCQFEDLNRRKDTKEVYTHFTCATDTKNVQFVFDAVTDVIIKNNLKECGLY
Sa growth 42C – S. aureus growth inhibition at 42 and 30 °C, primary screen, LtaS inhibitor project, RN4220, two temperatures. OD600, 20 h, 42 °C; active compounds read low. relative growth, % (no concentration beside the values). hit rate 0.53% among 170,000;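 active = growth at 42 °C up to 50% and 20 or more points under that at 30 °C, or under 10% at both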;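 note: 300 nL library stock went into each well; scaled to the means of positive and negative controls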
Sa growth 42C second temp – also measured in Sa growth 42C; calls as there; relative growth, %; measured here: growth at 30 °C;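 optical density after 20 h as mean of two plates; 100% = untreated growth and lower means inhibition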
* hit, by the source's call; . = not tested or not shown. Random draw from the library; any-hit rate near 0.82%.

SMILES	HCMV UL50-53 inh	GIV-Gai inh	Sa growth 42C	Sa growth 42C second temp
CCCCCc1cc(C(=O)O)[nH]c1-c1ccccc1	-2	110	52	35
C=CCN(CC=C)c1nc(-c2ccccc2)nc2ccccc12	.	100	96	85
OCC1OC(n2nnc3ccccc32)C(O)C(O)C1O (stereo not drawn)	-13	97	83	102
CCC(=O)N1CCc2cc(Br)cc(S(=O)(=O)N3CCC(C(=O)NCCC(C)C)CC3)c21	-14	106	95	89
Cc1cc(C)c(NC(=O)c2nccnc2CO)c(C)c1	-24	105	101	90
CC1(C)Cc2c(c(-c3ccco3)[nH]c(=O)c2C#N)CO1	-3	107	99	92
C=C1N(c2cccc(C(F)(F)F)c2)C(=O)OC1(C)C	-13	103	90	73
CCNC(=S)N1CCOCC1	6	.	114	95
Cc1sc2ncn(CC(O)CO)c(=O)c2c1C (stereo not drawn)	18	106	106	79
Cc1cccc(-c2nc(CCN(C)S(=O)(=O)c3ccc(C)c4nsnc34)no2)c1	-26	96	.	.
Cc1cccc(C)c1NC(=S)N1CCCc2cccc(C)c21	-14	107	83	90
COc1ccccc1C(=O)NCC(c1ccccc1Cl)c1c[nH]c2ccccc12 (stereo not drawn)	-23	102	.	.
COc1cccc(C2c3c(C)nn(C)c3NC(=O)C2NC(=O)c2ccccc2)c1 (stereo not drawn)	-20	.	80	98
N#Cc1c(NC(=O)c2cccs2)sc2c1CCCCC2	-10	108	106	76
CCOC(=O)c1cccc(NC(=O)Cn2c(CC(=O)N3CCCC3)nc3ccccc32)c1	-31	103	109	86
Cc1ccc(N2CC(c3nnc(NC(=O)c4ccccc4)s3)CC2=O)cc1 (stereo not drawn)	0	105	.	.
CCc1ccc(CN(Cc2ccco2)c2cnc(S(C)(=O)=O)nc2C(=O)Nc2ccccc2Cl)cc1	18	106	94	89
Cc1ccc(-c2cc(N)n(-c3ccc(C)cc3)n2)cc1	.	104	128	101
O=C(Nc1ccc(Cl)cc1)NC1CCCCNC1=O (stereo not drawn)	7	102	112	94
COC(=O)c1sccc1S(=O)(=O)N(CC(=O)NCc1ccc(F)cc1)c1ccc(C)c(C)c1	.	102	78	77
COc1ccc(C2NC(=O)c3ccccc3N2C)cc1 (stereo not drawn)	3	.	82	100
CCOC(=O)c1cccc(NS(=O)(=O)c2cc(Br)cc3c2N(C(=O)C2CC2)CC3)c1	9	103	137	93
CCCC1OC23CCCCC2C(C#N)(C(=N)O3)C1(C#N)C#N (stereo not drawn)	-31	105	100	73
Cc1ccc(CNC(=O)Nc2nnc(N3CCCC(C)C3)s2)cc1 (stereo not drawn)	.	103	99	89
O=C1CC2(CCCC2)C(=O)N1c1cc(Cl)cc(Cl)c1	9	96	106	102
O=C1CC(Cc2ccc(Cl)cc2)C(=O)N1c1ccccn1 (stereo not drawn)	.	102	71	98
CNC(=O)c1ccc(N2CCCC2=O)cc1	-20	.	117	83
CC(C)COc1ccc(C(=O)N(Cc2ccc(N(C)C)cc2)Cc2ccco2)cc1	-18	105	96	81
CN(c1ccc(Cl)cc1)S(=O)(=O)c1nnc(NC(=O)c2ccco2)s1	16	102	80	36
N#Cc1ccc(COC(=O)c2ccco2)cc1	-33	.	118	83
S=C(NCCc1ccccn1)Nc1ccccc1	6	97	95	88
Cc1c(C(=O)NCc2ccc(F)cc2)sc2nc3n(c(=O)c12)CCC3	-6	98	98	94
C=CCn1c2[n+](c3ccccc3c1=O)CCCCC2	-42	.	99	83
O=C(Cn1nnc(-c2ccccc2)n1)OCC(=O)N1CCc2ccccc2C1	2	.	95	94
CSc1ncccc1C(=O)NCC1CCCCC1	-24	.	81	88
CCOc1ccc(CCNc2cc(C)nc3ncnn23)cc1OCC	1	100	83	88
O=C(NCCCN1CCCCC1)c1ccc(Cn2c(SCc3ccccc3)nc3cccnc32)cc1	-37	104	.	.
COc1ccc(C(=O)Oc2csc(=S)n2C(=O)c2ccc(OC)cc2)cc1	-4	.	108	90
Nc1cc(=O)[nH]c(=O)n1-c1ccc(Cl)cc1	17	98	98	94
N#CCc1ccc(OCc2cc(Cl)cc(Cl)c2)cc1	-11	104	70	67
C=CCSc1nc2ccccc2n1C(=O)CN1C(=O)c2ccccc2C1=O	-28	100	.	.
CC(=O)N1CCN(S(=O)(=O)c2cccc(C(=O)NCC34CC5CC(CC(C5)C3)C4)c2)CC1	-2	.	91	87
Cc1ccc(O)c(CNn2cnnc2)c1	2	.	114	88
Cn1cc(Br)c(-c2cccc(NC(=O)CCCC(=O)O)c2)n1	-8	100	92	87
Cc1ccc(CCNc2nc3ccccc3c3nc(-c4ccccc4)nn23)cc1	-3	108	108	84
COc1ccc(C(=O)OCc2cn3cc(Cl)ccc3n2)c(OC)c1OC	-14	.	101	85
O=C(NCCCN1CCN(Cc2ccccc2)CC1)c1cccs1	.	106	126	94
CCCCn1c(SCC(=O)N2CCC(C)CC2)nc2cc(S(N)(=O)=O)ccc21	8	.	112	81
C=C(/C(C)=N/O)c1ccccc1	-10	106	92	87
CCCCOC(=O)Nc1nccs1	-6	98	92	86

Results in Sa growth 42C and HCMV UL50-53 inh, for four of the compounds above:
canonical_smiles,Sa growth 42C,HCMV UL50-53 inh
CC(=O)N1CCN(S(=O)(=O)c2cccc(C(=O)NCC34CC5CC(CC(C5)C3)C4)c2)CC1,91,-2
Cc1ccc(O)c(CNn2cnnc2)c1,114,2
Cn1cc(Br)c(-c2cccc(NC(=O)CCCC(=O)O)c2)n1,92,-8
Cc1ccc(CCNc2nc3ccccc3c3nc(-c4ccccc4)nn23)cc1,108,-3

Quoted from the results shown, 7 compounds:
SMILES	HCMV UL50-53 inh	GIV-Gai inh	Sa growth 42C	Sa growth 42C second temp
C=CCSc1nc2ccccc2n1C(=O)CN1C(=O)c2ccccc2C1=O	-28	100	.	.
CC(=O)N1CCN(S(=O)(=O)c2cccc(C(=O)NCC34CC5CC(CC(C5)C3)C4)c2)CC1	-2	.	91	87
Cc1ccc(O)c(CNn2cnnc2)c1	2	.	114	88
Cn1cc(Br)c(-c2cccc(NC(=O)CCCC(=O)O)c2)n1	-8	100	92	87
Cc1ccc(CCNc2nc3ccccc3c3nc(-c4ccccc4)nn23)cc1	-3	108	108	84
COc1ccc(C(=O)OCc2cn3cc(Cl)ccc3n2)c(OC)c1OC	-14	.	101	85
O=C(NCCCN1CCN(Cc2ccccc2)CC1)c1cccs1	.	106	126	94

Further compounds.
SMILES	HCMV UL50-53 inh	GIV-Gai inh	Sa growth 42C	Sa growth 42C second temp
Cn1ccnc1SCC(=O)c1c[nH]c2ccccc12	-16	.	80	89
COC(=O)c1nnn(CC(=O)NC(=O)Nc2ccc(F)cc2)c1C(=O)OC	-12	99	101	81
CNc1nc(NC(C)C)nc(-n2cnc(SC)n2)n1	-14	97	.	.
Cc1ccc(CN(C(=O)COc2ccccc2[N+](=O)[O-])c2ccccn2)cc1	-20	101	99	79
Cc1cc2nc(CSc3ccccc3NC(=O)Nc3ccc(F)c(Cl)c3)cc(=O)n2o1	-18	110	.	.
O=C(NC1CCCCC1)OCC(F)(F)F	-11	.	89	97
CCc1cccc(NC(=O)CN(C2=NC3CS(=O)(=O)CC3S2)c2cccc(C)c2)c1 (stereo not drawn)	3	103	113	100
COC(=O)c1cc(C(=O)Nc2ccc(OC)c(Cl)c2)c(=O)[nH]c1C	12	109	.	.
COc1cc(C(=O)NCCc2csc3nc(-c4ccccc4C)nn23)cc(OC)c1OC	.	109	100	91
COc1ccc(C(=O)O)cc1Br	-13	.	89	88
CCn1c(O)c(C(C)=NCc2ccccc2CN(C)C)c(=O)n(CC)c1=S	-2	.	122	92
CCOC(=O)c1cc(-c2ccccc2)n(-c2cccc(C(=O)N3CCCC3)c2)c1C	.	107	69	79
O=C1C=C(NCc2ccc(Cl)cc2)CCC1	-4	100	99	95
Cc1ccc(N2CC(NC(=O)C3CCCC3)CC2=O)cc1 (stereo not drawn)	.	97	100	93
Cc1c(C)c(C)c(CN)c(C)c1C	-8	108	106	101
CC(C)Cn1nc(C(=O)N2CCN(Cc3nc4ccccc4s3)CC2)c2ccccc2c1=O	8	.	97	93
Cc1ccc(-c2nc3n(n2)C(c2ccccc2Cl)C=C(c2ccc(Cl)cc2)N3)cc1 (stereo not drawn)	21	99	84	97
COc1cc2c(cc1OC)C(COc1ccc(F)cc1)N(C(=O)Cc1ccc(F)cc1)CC2 (stereo not drawn)	.	99	96	82
CCn1nccc1C(=O)Nc1nccs1	4	112	98	99
O=C(NC1CCCCC1)/C(=C/c1ccc(Cl)cc1)NC(=O)c1ccccc1	-41	102	106	98
Cc1onc(-c2ccccc2)c1C(=O)NC12CC3CC(CC(C3)C1)C2	-21	.	93	87
CC(C)C(NS(=O)(=O)c1ccc2c(c1)CCCC(=O)N2)C(=O)NCCc1ccc(Cl)cc1 (stereo not drawn)	-20	109	.	.
COc1ccc(C)cc1NC(=O)COC(=O)[C@@H]1CCCN1C(=O)OC(C)(C)C	-5	.	112	89
Cn1cnc(S(=O)(=O)N2CCCC(C(=O)NCc3ccccc3)C2)c1 (stereo not drawn)	.	100	84	89
CCOc1ccc(NC(=O)CC2C(=O)N(c3ccccc3)C(=S)N2CCCN2CCN(C)CC2)cc1 (stereo not drawn)	-7	106	85	92
COc1cccc(OCC2COS(=O)O2)c1 (stereo not drawn)	-2	94	84	103
CC1(C)C2CC=C(/C=N/NC(=O)c3cccc(S(=O)(=O)N4CCOCC4)c3)C1C2 (stereo not drawn)	-15	.	55	85
COc1ccc(C(CNC(=O)COc2cc(C)cc(C)c2)N2CCOCC2)cc1 (stereo not drawn)	-25	101	98	85
CCC(C)NC(=O)c1ccccc1N (stereo not drawn)	-1	.	100	94
CC1CC(OCC(O)CN)CC(C)(C)C1 (stereo not drawn)	-33	104	85	82
O=c1oc2c(O)c(O)ccc2c2c1CCC2	-63	100	.	.
Cn1ncc(N2CCN(C(=O)c3ccc(Cl)cc3)CC2)c(Cl)c1=O	-18	97	102	94
O=C(CN(Cc1ccc(Cl)cc1Cl)S(=O)(=O)c1ccccc1)N1CCCC1	-16	.	92	86
COc1ccc(NC(=O)Cn2c(=O)n(-c3ccc(C)c(C)c3)c(=O)c3c(C)c(C)sc32)cc1	13	104	104	113
CSc1nnc(C2CCN(C(=O)c3cc(F)cc(F)c3)CC2)n1C	-4	100	106	90
Cc1cnc2c(c1SCC(=O)NCc1ccccc1Cl)c(=O)n(C)c(=O)n2C	.	106	114	99
Cn1nc(C(=O)N2CCCC2)c2c1-c1ccsc1CC2	0	98	.	.
CCCN(Cc1cc2cccc(C)c2[nH]c1=O)C(C)=O	-3	105	83	85
CCC1Oc2ccc(C)cc2N(CC(=O)N(Cc2cccnc2)Cc2cccc(OC)c2)C1=O (stereo not drawn)	-3	104	124	96
COc1ccc(C)cc1NC(=O)c1ccc2c(Cl)c3c(nc2c1)CCC3	-17	101	102	87
Cc1cc(C)c2c(C)c(C(=O)NCC(c3cccs3)N3CCCC3)oc2c1 (stereo not drawn)	13	103	.	.
O=C(NCc1ccc(F)cc1)c1ccc(CSCc2cccc(Cl)c2)o1	.	101	96	91
CCOC(=O)c1c(NC(=O)c2cnn3c(C(F)(F)F)cc(-c4ccco4)nc23)sc2c1CCCC2	5	100	.	.
CCC(C)C(=O)Nc1ccc(C(C)CC)cc1 (stereo not drawn)	-6	99	98	98
CC(C)NC(=O)c1ccc2c(=O)n(C(C)C)c3nn(CC(=O)NC(C)(C)C)c(=O)n3c2c1	-15	104	.	.
Cc1cc(C(=O)Nc2ccc(C)c(C)c2)no1	-22	102	.	.
NNC(=O)c1ccc(C(F)(F)F)cc1	-35	104	95	85
CS(=O)(=O)N1Cc2ccccc2CC1C(=O)OCc1nnc(-c2ccc(Cl)cc2)o1 (stereo not drawn)	-4	.	112	85
COc1ccc(-c2nn(C)c3ccccc23)cc1	0	.	50	46
CNC(=O)c1ccc(Cn2c(=O)[nH]c3cc(OC)c(OC)cc3c2=O)cc1	0	109	.	.

Remaining list, next part
SMILES	HCMV UL50-53 inh	GIV-Gai inh	Sa growth 42C	Sa growth 42C second temp
CCOC(=O)c1cnn(CCOC(=O)CC(C)C)c1NC(=O)CC(C)C	9	103	.	.
COC(=O)c1ccccc1NC(=O)n1ncc2cc(Cl)ccc21	-9	106	97	88
CC1=C(C(=O)NCc2ccccc2Cl)C2(CCCCCC2)OC1=O	.	104	105	103
CSc1ncccc1C(=O)OCCCCN1C(=O)c2ccccc2C1=O	-39	.	101	95
O=C(Nc1ccccc1)C1C2C=CC3(O2)C1C(=O)N(C1CCCC1)C3C(=O)NC1CCCCC1 (stereo not drawn)	0	100	88	82
COC(=O)c1cc(S(=O)(=O)NC2CCN(Cc3ccccc3)CC2)cn1C	-20	107	113	99
O=C(O)C(O)c1ccc(Br)cc1 (stereo not drawn)	-8	96	85	88
